# From PubChem
# CtBP-E1A blk: qHTS Assay for Inhibitors of the CtBP/E1A Interaction. CtBP / adenovirus E1A interaction (AlphaScreen). AlphaScreen GST-E1A/His-CtBP binding, 1536-well; stronger effect = lower value; control for the full effect not named in the record. activity change, % (no concentration beside the values). 0.49% of 340,000 active. AID 651724, 2012; in the data active means activity change below about -65%; inconclusive means about -30% to -65%; inactive means above about -30%; also: % is scaled to controls: 0 for no effect and ±100 for the full control effect; compound concentration not given in the record
#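 GST-E1A and His-tagged CtBP (125 nM each as 5X stock) were preincubated with pin-transferred compound for 2 h at 37 °C in the dark, then glutathione donor and nickel acceptor beads were added for 1 h before AlphaScreen reading.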
# ClpP mod: qHTS Assay for Activators of ClpP. 1.9% of 340,000 active. Potency, µM (titrated, usually from 57.5 µM), for inactives: at the top dose activity change, negative = active. purified B. subtilis ClpP, FRET peptide cleavage, 20 min; active = well fitted falling curve with a large enough effect; inconclusive = small, poorly fitted or top-dose-only effect; inactive = no such curve, though single readings can be large or run the other way; also: potency is read from the fitted curve at half-maximal effect; the source files actives as falling curves though it sought activators and does not explain the sign; nearly all actives have a fitted effect of over 65% in size; many hits overshoot -100%
# Target sequence (P80244 whole entry, looked up): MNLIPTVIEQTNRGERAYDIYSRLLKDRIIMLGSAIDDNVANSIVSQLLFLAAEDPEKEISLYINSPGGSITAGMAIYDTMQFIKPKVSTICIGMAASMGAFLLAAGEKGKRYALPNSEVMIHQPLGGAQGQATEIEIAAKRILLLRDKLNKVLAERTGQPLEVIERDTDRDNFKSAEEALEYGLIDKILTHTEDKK
#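 Purified B. subtilis ClpP, 10 microg/mL final in Tris/HCl pH8 with KCl, BSA, glycerol and Tween-20, cleaved an Abz/nitrotyrosine-quenched decapeptide. Fluorescence (ex 320, em 430) was read at 0 and 20 min at room temperature. Delta was normalized to 5.8 microM ADEP and DMSO/no-enzyme controls.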
# TRPV1 potentiator: HTS Assay for Compounds that Act as Potentiators of the Vanilloid Receptor 1; Transient receptor potential cation channel subfamily V member 1 (Homo sapiens), Q8NER1; TRPV1-expressing cells, Fluo-8 calcium influx, capsaicin EC20 potentiation; host cell line not named in the record; control for the full effect not named in the record; potentiation, % at 8.33 µM; 0.02% of 320,000 active; active means potentiation above 80%; inconclusive means 30% to 80%; inactive means below 30%; also: 0% is about no effect
# Target sequence (Q8NER1 whole entry, looked up): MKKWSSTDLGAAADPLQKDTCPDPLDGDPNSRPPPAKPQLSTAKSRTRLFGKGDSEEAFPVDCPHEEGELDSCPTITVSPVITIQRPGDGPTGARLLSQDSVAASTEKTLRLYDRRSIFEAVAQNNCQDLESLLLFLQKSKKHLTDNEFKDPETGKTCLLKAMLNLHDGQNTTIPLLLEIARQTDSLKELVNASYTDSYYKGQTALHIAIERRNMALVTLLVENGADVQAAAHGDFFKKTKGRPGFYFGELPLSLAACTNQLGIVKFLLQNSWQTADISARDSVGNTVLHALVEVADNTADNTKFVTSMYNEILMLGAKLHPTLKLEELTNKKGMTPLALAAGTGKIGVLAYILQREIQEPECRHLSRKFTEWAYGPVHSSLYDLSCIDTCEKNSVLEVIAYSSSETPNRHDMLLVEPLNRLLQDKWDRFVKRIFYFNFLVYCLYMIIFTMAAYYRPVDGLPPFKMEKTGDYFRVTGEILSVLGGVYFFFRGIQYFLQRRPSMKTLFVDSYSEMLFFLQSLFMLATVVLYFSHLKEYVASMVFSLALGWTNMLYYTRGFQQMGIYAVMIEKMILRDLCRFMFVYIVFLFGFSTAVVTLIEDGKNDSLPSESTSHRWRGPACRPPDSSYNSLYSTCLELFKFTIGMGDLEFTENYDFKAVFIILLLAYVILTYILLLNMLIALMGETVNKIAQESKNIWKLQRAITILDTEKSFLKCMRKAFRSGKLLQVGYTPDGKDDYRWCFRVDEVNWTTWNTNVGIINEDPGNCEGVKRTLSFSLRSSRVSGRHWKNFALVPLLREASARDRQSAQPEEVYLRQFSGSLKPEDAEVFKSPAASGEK
#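 Fluo-8 calcium influx in TRPV1-expressing cells, kinetic read (ex 480/em 520 nm). Compound added and read 3 min for agonist activity, followed by capsaicin at EC20 final and 2 min further read for enhancement.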
# gsp antag: qHTS for Antagonists of gsp, the Etiologic Mutation Responsible for Fibrous Dysplasia/McCune-Albright Syndrome: qHTS | gsp-mutant cells, cAMP HTRF, 30 min; control for the full effect not named in the record | 0.4% of 340,000 active | Potency, µM (titrated, usually from 76.9 µM), without a hit: at the highest dose activity change, negative = inhibition, actives largely listed as inhibitors; active = falling curve of any shape with a large fitted effect; inconclusive = falling curve, mostly with a smaller effect; inactive = flat or rising curve; cell line not stated here;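 also: intracellular cAMP measured with PDE inhibitor Ro 20-1724 present during compound exposure; potency is read from the fitted curve at half-maximal effect; % is scaled to controls: 0 for no effect and ±100 for the full control effect; nearly all actives have a fitted effect of over 65% in size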
#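 Cells, 2000/well, grown 16–24 h in DMEM 10% FBS with 0.5 mg/ml G418, then compounds plus […] (300 uM addition stock), 30 min at 37C. cAMP read by HTRF (cAMP-d2 and anti-cAMP antibody-K in lysis buffer) after 30 min RT.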
# gsp ag: qHTS for Agonist of gsp, the Etiologic Mutation Responsible for Fibrous Dysplasia/McCune-Albright Syndrome: qHTS; gsp mutant cells, cAMP HTRF, 30 min; control for the full effect not named in the record; Potency, µM (top dose mostly 76.9 µM), for the others: top-dose activation (cAMP increase), most hits filed as activators; 0.13% of 340,000 active; active = well fitted activation curve with a large enough effect; inconclusive = small, poorly fitted or top-dose-only effect, or another doubt; inactive = no such curve, though single readings can be large or run the other way; cell line not stated here;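 also: phosphodiesterase inhibitor Ro 20-1724 added with compounds to block cAMP breakdown; potency is read from the fitted curve at half-maximal effect; nearly all actives have a fitted effect of over 60% in size; about a fifth of the inactives were tested at one dose only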
#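 Cells stably selected in G418 were plated at 2000/well, grown 16-24 hr, then given compounds in DMSO with the PDE inhibitor […] (300 uM solution added) for 30 min at 37C; cAMP was read by HTRF.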
# Sfp PPTase inh: qHTS Assay for Inhibitors of Bacillus subtilis Sfp phosphopantetheinyl transferase (PPTase) | 4'-phosphopantetheinyl transferase ffp (Bacillus subtilis), Q9F4F7 | Biochemical Sfp PPTase activity, qHTS | Potency, µM, for the others: max response, negative = inhibition, most hits filed as inhibitors | 3.5% of 310,000 active | AID 1490, 2009; active = well fitted inhibition curve with a large enough effect; inconclusive = small, poorly fitted or top-dose-only effect, or another doubt; inactive = no such curve, though single readings can be large or run the other way;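 also: the enzyme is Sfp with the accession as filed and its product quenches rhodamine fluorescence; potency is read from the fitted curve at half-maximal effect; 0% = enzyme reaction without inhibitor and -100% = no enzyme wells; top concentration of the series not given in the record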
#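 Fluorescence-quenching assay: 15 nM Sfp-PPTase preincubated 15 min at room temperature with compound, then 5 uM rhodamine-CoA and 12.5 uM BHQ-2-labelled YbbR peptide added. Fluorescence (ex 525/em 598 nm) read at start and after 30 min; difference gives rate.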
# Menin-MLL FL inh: qHTS Assay for Inhibitors Targeting the Menin-MLL Interaction in MLL Related Leukemias: Competition With Fluorescein Labeled MLL-derived Peptide; Fluorescence polarization, fluorescein-MLL peptide displacement from menin; 290,000 tested, under 10 active; FP activity change, % at 61.4 µM; inconclusive = falling polarisation curve, or a change in total fluorescence; inactive = total fluorescence flat and polarisation flat or rising; no compound was filed as active; the % refers to the polarisation; negative = inhibition;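 also: % of control where 0% means no effect; inhibitors lower the polarisation; unlabelled MLL peptide was the positive control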
# The depositor's hits bear a star; ? = inconclusive; / = no result given; & = joins results of further samples; [ ] = another dose, or the depositor's remark.
SMILES,CtBP-E1A blk,ClpP mod,TRPV1 potentiator,gsp antag,gsp ag,Sfp PPTase inh,Menin-MLL FL inh
CCC(C)(C(=O)NC1CCCC1)N(C(C)=O)c1ccc(C)cc1 (stereo not drawn),-9,-1.4%,18,1%,-8%,10%,-1.2
Cc1ccnc(NC(=O)Nc2cccc(F)c2)c1,4,2.2%,-8,-1%,7%,11%,1.1
O=C(O)C1(c2ccccc2)CCN(S(=O)(=O)c2ccc(Cl)s2)CC1,10,1.0%,14,-27%,?,2%,0.6
CCN(CC)c1ccc(NC(=O)COc2ccc(-n3cnnn3)cc2)cc1,-16,/,/,-9%,-35%,/,/
CCOC(=O)N1CCC2(CC1)C(C#N)=C(N)OC1=C2C(=O)CC(C)(C)C1,7,-0.8%,7,-3%,-3%,4%,0.4
O=S(=O)(NCCCN1CCOCC1)c1ccc(Cl)cc1,0,/,-3,17%,-11%,16%,1.7
CCOC(=O)C1=C(CS(=O)(=O)c2ccccc2)NC(=O)NC1c1ccccc1OCC (stereo not drawn),4,0.5%,6,0%,-7%,12%,2.3
Nc1c(C(=O)NCc2ccco2)nnn1Cc1ccccc1,-10,-2.9%,0,11%,-2%,12%,-7.4
CN(C)C(=O)c1ccc(=O)n(Cc2ccc(Cl)cc2Cl)c1,12,-1.0%,13,-8%,-7%[15.4 µM],3%,-1.5
O=C(CCc1ccc(S(=O)(=O)NCc2ccccc2)cc1)NCc1ccco1,4,-1.5%,?,-2%,-12%,1%,0.0
FC(F)(F)c1cccc(NC(=S)N2CCCCCC2)c1,/,1.5%,11,4%,6%,5%,3.1
O=C(Nc1cccc(-n2cccn2)c1)C1CCCN(Cc2cccc(F)c2F)C1 (stereo not drawn),6,1.0%,-7,-27%,-3%[15.4 µM],-4%,/
COc1ccc(CN=C(NS(=O)(=O)c2cccs2)SC)cc1,16,0.5%,-4,3%,-54%[inhibitor],22%,4.4
Cc1ccc(-c2nc(C3CCCN(S(=O)(=O)c4ccc(C)cc4)C3)no2)cc1 (stereo not drawn),7,0.5%,/,-3%,-18%,0%,5.2
O=C(Cc1ccccc1[N+](=O)[O-])NCc1ccc(Cl)cc1,2,0.7%,-4,5%,2%,4%,-0.2
Cc1ccccc1N1CCN(Cc2c[nH]c3ccccc23)CC1,21,2.3%,12,17%,13%,-18%,-0.7
CN1CCN(c2ccc(NC(=O)c3ccc(C(F)(F)F)cc3)cn2)CC1,-22,/,-26,2%,-8%[15.4 µM],6%,-4.0
CC(=O)Nc1ccc(S(=O)(=O)N[C@@H](C)C(=O)NC2CCCc3ccccc32)cc1 (stereo partly drawn),0,-2.0%,/,5%,0%,/,/
CCOC(=O)C(=O)c1c(-c2ccccc2)nc2ccccn12,0,/,-3,11%,-25%,12%,-0.6
C1CCc2nnc(C3CC3)n2CC1,-4,/,-2,2%,-7%[15.4 µM],13%,-1.4
C/C(=N\NC(=O)COc1ccccc1)c1ccc(O)cc1,0,/,3,-15%,5%[15.4 µM],2%,3.4
CCn1cc(CN2CCC(n3nccc3NC(=O)c3ccc(OC)cc3)CC2)cn1,-3,-3.9%,21,7%,-1%,14%,-3.2
O=S(=O)(Nc1ccc2c3c(cccc13)CC2)c1ccccc1,-8,-2.7%,/,/,-17%,/,/
CCC(=O)N/N=C(\C)CC(=O)Nc1cccc([N+](=O)[O-])c1,9,-1.1%,-4,8%,?,5%,4.5
COc1ccc(OC)c(S(=O)(=O)N2CCCCC2C(=O)N2CCN(c3ccccn3)CC2)c1 (stereo not drawn),0,-29%,13,-14%,-45%[inhibitor],-4%,1.2
CC(C)NC(=O)CN1C(=O)c2ccccc2S1(=O)=O,4,/,-2,3%,-1%[15.4 µM],7%,1.5
Cc1cccc(C(=O)OC(C)C(=O)NC2CCCc3ccccc32)c1O (stereo not drawn),-12,/,4,3%,-22%[15.4 µM],/,/
COc1cccc(/C=C/c2ccncc2)c1OC,-3,-3.7%,-9,-1%,-27%,7%,-1.6
COc1ccc(-n2nc3c(N4CCC(C(=O)NCCc5ccco5)CC4)nnc(C)c3c2C)cc1,-12,?,-23,-23%,?,-4%,4.1
CC(C)CNc1oc(-c2ccccc2Cl)nc1C#N,-7,/,-9,1%,3%,-11%,-0.9
CC1CCCC(C)N1CCCNC(=O)C1CCCN(S(=O)(=O)N2CCCCC2)C1 (stereo not drawn),-4,0.9%,/,/,-54%[inhibitor],/,/
COc1cc(OC)cc(-c2oc(=O)c3cc(OC)c(OC)cc3c2C(F)(F)F)c1,4,-2.8%,/,-2%,/,/,/
CCN1CCN(C(=O)c2cc(S(=O)(=O)N3CCCCC3)ccc2Cl)CC1,16,1.1%,0,5%,15%,19%,/
COc1cccc(N2CC(C(=O)OC(C)C(=O)c3ccccc3)CC2=O)c1 (stereo not drawn),-4,1.7%,-2,-8%,18%,3%,6.3
Cc1ccc(CNC(=O)C2CC(=O)OC23CCCC3)c(C)c1 (stereo not drawn),3,-1.6%,17,-9%,-8%,4%,6.1
CCC(C)(C)n1nnnc1C(c1ccc(C)cc1)N1CCSCC1 (stereo not drawn),-1,-0.5%,0,-10%,-22%,2%,5.6
CCN(CC)CCCNC(=S)N1CCN(c2nc3ccccc3n2CC)CC1,2,/,?,6%,-19%,-4%,0.8
Cn1c(COc2nnc(-c3ccc(Cl)cc3)c3ccccc23)nc2ccccc21,7,-0.3%,15,2%,-33%[inhibitor],15%,-0.3
C/C(N)=C(/C#N)C(=O)CSc1nc(C2CCCCC2)n(-c2ccccc2)n1,1&2,1.4%,27,-15%&-2%,15%&-1%,-8%,0.8
O=C(c1ccccc1)c1cccn1CC(=O)N1CCN(c2ccccc2)CC1,2,0.1%,22,2%,-28%,6%,0.4
CCOC(=O)/C(=N\Nc1ccccc1Cl)N(C)C1CCCCC1,3,1.3%,-2,-10%,3%,-12%,3.4
CN(CCOc1ccccc1)C(=O)c1ccc2c(c1)OCO2,5,-0.5%,14,7%,-62%[inhibitor],/,/
COc1ccc(F)cc1S(=O)(=O)NCC1CCCO1 (stereo not drawn),8,0.6%,3,6%,0%[15.4 µM],10%,6.0
CCOC(=O)Cn1nc(C)c(NC(=O)COc2ccccc2)c1C,8,-0.6%,-20,12%,-6%[15.4 µM],?,2.3
CC1(C)Cc2c(ccc3ccccc23)C2=C(C(=O)N3CCCC3)C(=O)C(=O)N21,-1,/,-5,-5%,1%[15.4 µM],12%,0.9
CCCCCSc1nc2c(c(=O)[nH]c(=O)n2C)n1C(C)C,10,-1.5%,8,-1%,32%,-6%,0.2
CC1CCN(C(=O)COC(=O)c2cc(=O)[nH]c3ccccc23)CC1,-21,-5.9%,-2,1%,-5%,/,/
CCOC(=O)N1CCN(C(=O)c2cc(COc3ccc(OC)cc3Cl)on2)CC1,5,1.3%,-16,35µM*,-2%,-1%,1.2
COc1ccc(C(C(=O)NC2CCCC2)N(C(=O)c2snc(C(N)=O)c2N)c2ccccc2OC)cc1OC (stereo not drawn),6,-26%,-8,-6%,?,5%,/
O=[N+]([O-])c1ccc2[nH]ncc2c1,-7,/,4,6%,-2%[15.4 µM],6%,-0.5
Cc1cc(C)c2nc(N(CCN(C)C)C(=O)c3ccc4ccccc4c3)sc2c1,-28,-12%,5,5%,4%,56µM*,2.7
CCCN1C(=O)c2ccc(C(=O)NC3=NCCS3)cc2C1=O,1,-2.2%,-5,-13%,9%,14%,-0.5
Cc1cccc(OCC(=O)Nc2ccc(N3CCN(C(=O)c4ccco4)CC3)cc2)c1C,4,/,-2,-4%,30%,14%,-2.7
CCN(CC)C(=O)CSc1nnc([C@H](Cc2c[nH]c3ccccc23)NC(=O)OC(C)(C)C)o1,-5,1.9%,0,-1%,4%,-3%,2.0
CC(c1ccccc1)n1cc(C(=O)NCC2CCCO2)nn1 (stereo not drawn),2,0.3%,-11,-5%,-40%[inhibitor],10%,1.8
COc1ccc(CCN2CC(C(=O)N(C)Cc3cccnc3)CC2=O)cc1OC (stereo not drawn),3,0.1%,-3,18%,-11%,/,/
Cc1ccc(OCC(=O)NC(C)c2ccccc2)cc1C (stereo not drawn),/,-0.4%,-14,-3%,8%,-4%,-1.6

# No new results follow: an excerpt of the list.
SMILES,CtBP-E1A blk,ClpP mod,TRPV1 potentiator,gsp antag,gsp ag,Sfp PPTase inh,Menin-MLL FL inh
CCC(C)(C(=O)NC1CCCC1)N(C(C)=O)c1ccc(C)cc1 (stereo not drawn),-9,-1.4%,18,1%,-8%,10%,-1.2
Cc1ccnc(NC(=O)Nc2cccc(F)c2)c1,4,2.2%,-8,-1%,7%,11%,1.1
O=C(O)C1(c2ccccc2)CCN(S(=O)(=O)c2ccc(Cl)s2)CC1,10,1.0%,14,-27%,?,2%,0.6
CCN(CC)c1ccc(NC(=O)COc2ccc(-n3cnnn3)cc2)cc1,-16,/,/,-9%,-35%,/,/
CCOC(=O)N1CCC2(CC1)C(C#N)=C(N)OC1=C2C(=O)CC(C)(C)C1,7,-0.8%,7,-3%,-3%,4%,0.4
O=S(=O)(NCCCN1CCOCC1)c1ccc(Cl)cc1,0,/,-3,17%,-11%,16%,1.7
